Source: PubChem BioAssay (Broad Institute)
Vaccinia inh: Vaccinia orthopox stage-specific inhibition | Vaccinia-infected cells, mCherry/Venus stage reporter fluorescence; active compounds read low; some inactives read as strong as hits | activity change (mCherry), % (no concentration beside the values) | 0.01% of 89,000 active | AID 1053133;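 active = mCherry past -33% and 40 or more points under the early reporter, replicates agreeing; inconclusive = past -33% without that gap or agreement; tested in A549 cells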;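 note: scaled between vehicle wells and reference inhibitor wells; 23 nL library stock went into each well; one replicate is shown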
Vaccinia inh Venus: also measured in Vaccinia inh; calls as there; activity change (Venus), %; measured here: Venus reporter, other viral stage;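 negative = less Venus signal; first of two replicates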
The depositor's hits bear a star; ? = inconclusive; nt = not tested or not shown. Some of the compounds tested (hit frequency here may not be typical).

Below each SMILES – Vaccinia inh | Vaccinia inh Venus
- C[C@@H]1CCCCO[C@H](CN(C)Cc2ccc3c(c2)OCO3)[C@H](C)CN([C@H](C)CO)C(=O)c2cc(NS(C)(=O)=O)ccc2O1
    -2 | 0
- C[C@@H]1CN([C@@H](C)CO)C(=O)c2cc(C3=CCCC3)cnc2O[C@H]1CN(C)C(=O)Nc1ccc(C(F)(F)F)cc1
    -23 | -24
- C/C=C/c1ccc([C@H]2[C@@H](CO)N(C(C)=O)[C@@H]2CNC(=O)CC2CC2)cc1
    -2 | 2
- O=C(NC[C@H]1N[C@H](CO)[C@@H]1c1ccc(C2=CCCC2)cc1)C1CCCC1
    -22 | -17
- CCCNC(=O)N(C)C[C@H]1Oc2ncc(C3=CCCCC3)cc2C(=O)N([C@H](C)CO)C[C@@H]1C
    4 | 1
- C[C@@H]1CN([C@H](C)CO)C(=O)c2cc(NS(=O)(=O)c3cn(C)cn3)ccc2O[C@H]1CN(C)Cc1ccc(C(F)(F)F)cc1
    2 | -6
- Cc1ccc(S(=O)(=O)N[C@@H]2CC[C@@H](CC(=O)O)O[C@H]2CO)cc1
    13 | 17
- COc1ccc(S(=O)(=O)N[C@@H]2C=C[C@H](CC(=O)NCc3ccccc3F)O[C@H]2CO)cc1
    1 | 1
- Cc1ccc(S(=O)(=O)N2C[C@H](O)COC[C@H]3O[C@@H](CC(=O)N4CCc5ccccc5C4)CC[C@@H]32)cc1
    -13 | -9
- CCC(=O)N1C[C@H](C)[C@H](OC)CN(C)C(=O)c2cc(NC(=O)COC)ccc2OC[C@H]1C
    16 | 11
- C[C@@H]1CN([C@@H](C)CO)S(=O)(=O)c2ccc(C#CC3CC3)cc2O[C@@H]1CN(C)Cc1cccnc1
    -22 | -19
- CCCNC(=O)Nc1ccc2c(c1)OC[C@@H](C)N(C(=O)C1CCC1)C[C@@H](C)[C@H](OC)CN(C)C2=O
    -4 | -4
- C[C@@H]1CN([C@H](C)CO)C(=O)c2cc(-c3ccccc3F)cnc2O[C@H]1CN(C)C(=O)C1CCOCC1
    0 | 7
- CC(C)C#Cc1ccc([C@@H]2[C@H]3CN(C(=O)c4ccccn4)CC(=O)N3[C@H]2CO)cc1
    5 | -1
- O=C([C@@H]1[C@@H](CO)[C@@H]2Cn3c(cccc3=O)[C@@H]2N1C(=O)CC1CC1)N1CCCCC1
    1 | 1
- COc1ccccc1NC(=O)N[C@@H]1CC[C@@H](CCNC(=O)c2ccc3c(c2)OCO3)O[C@H]1CO
    -11 | -8
- CCNC(=O)[C@@H]1[C@@H](CO)[C@@H]2Cn3c(ccc(-c4ccccc4)c3=O)[C@@H]2N1Cc1cccnc1
    8 | 11
- O=C(C[C@@H]1CC[C@@H](NC(=O)CN2CCOCC2)[C@H](CO)O1)NC1CCC1
    5 | 13
- CCCC#Cc1ccc([C@H]2[C@@H](CO)N(C(C)=O)[C@H]2CNC(=O)C2CCCC2)cc1
    -12 | -8
- CO[C@H]1CC[C@H]2CCOc3ccc(C#N)cc3C(=O)N(C)C[C@H](C)C(=O)N(C)C[C@@H]1O2
    7 | 4
- O=C(NCc1ccc(F)cc1)[C@H]1C[C@H]2C(=O)NCC(=O)N2[C@H]1c1cccc(OCCO)c1
    34 | 17
- C[C@H]1CCCCO[C@H](CN(C)C(=O)CCC(F)(F)F)[C@@H](C)CN([C@@H](C)CO)C(=O)c2cc(NC(=O)Nc3ccc4c(c3)OCO4)ccc2O1
    ? | nt
- C/C=C/c1ccc([C@@H]2[C@H](CO)N(C(=O)C3CC3)[C@H]2CN(CC)C(C)=O)cc1
    18 | 24
- CC(C)NC(=O)N1CC(=O)N2[C@H](C1)[C@H](c1ccc(/C=C/c3ccccc3)cc1)[C@@H]2CO
    ? | nt
- COc1cccc(-c2ccc3c(c2)O[C@H](CN(C)Cc2cccnc2)[C@@H](C)CN([C@@H](C)CO)S3(=O)=O)c1
    ? | nt
- COc1ccc(NC(=O)N(C)C[C@@H]2Oc3ccc(NC(=O)Cc4cn(C)c5ccccc45)cc3CC(=O)N([C@H](C)CO)C[C@@H]2C)cc1
    0 | -1
- O=S(=O)(N[C@H]1CC[C@@H](CCn2cc(-c3ccc(F)cc3)nn2)O[C@H]1CO)c1ccccc1F
    1 | 8
- O=C(N[C@H]1CC[C@@H](CC(=O)N2CCc3ccccc3C2)O[C@@H]1CO)C1CCC1
    0 | -1
- C[C@H](CO)N1C[C@H](C)[C@@H](CN(C)C(=O)CN(C)C)Oc2ncc(C#Cc3ccccc3)cc2C1=O
    -6 | -5
- COC(=O)[C@@H]1[C@@H](CO)[C@@H]2Cn3c(ccc(-c4cccc(OC)c4)c3=O)[C@@H]2N1Cc1nccs1
    3 | -3

2 compounds drawn at random from the list so far, as already listed:
Below each SMILES – Vaccinia inh | Vaccinia inh Venus
- C/C=C/c1ccc([C@@H]2[C@H](CO)N(C(=O)C3CC3)[C@H]2CN(CC)C(C)=O)cc1
    18 | 24
- COc1ccc(NC(=O)N(C)C[C@@H]2Oc3ccc(NC(=O)Cc4cn(C)c5ccccc45)cc3CC(=O)N([C@H](C)CO)C[C@@H]2C)cc1
    0 | -1

More compounds follow.
Below each SMILES – Vaccinia inh | Vaccinia inh Venus
- O=S(=O)(NCC[C@@H]1CC[C@H](NS(=O)(=O)c2cccc(Cl)c2)[C@@H](CO)O1)c1cccc(F)c1
    -31 | -20
- CCCNC(=O)N1CC2(CN(Cc3nccs3)C2)c2c([nH]c3cc(OC)ccc23)[C@@H]1CO
    28 | 8
- CO[C@@H]1CN(C)C(=O)c2cc(NC(=O)Nc3ccccc3F)ccc2OC[C@H](C)N(Cc2ccccc2C(=O)O)C[C@@H]1C
    14 | 9
- C[C@@H]1CN([C@H](C)CO)C(=O)c2cc(C#Cc3cccnc3)cnc2O[C@@H]1CN(C)C(=O)CN(C)C
    12 | 15
- CCCC(=O)Nc1ccc2c(c1)OC[C@H](C)N(CC1CCCC1)C[C@H](C)[C@H](OC)CN(C)C2=O
    5 | 6
- CCC(=O)N1C[C@H](C)[C@H](OC)CN(C)C(=O)c2cc(NS(C)(=O)=O)ccc2OC[C@@H]1C
    7 | 0
- CO[C@H]1CN(C)C(=O)c2cc(NC(C)=O)ccc2OC[C@@H](C)N(Cc2ccc(F)cc2)C[C@H]1C
    -8 | -6
- COc1ccccc1-c1cn(CC[C@@H]2CC[C@@H](NC(=O)C3CCCCC3)[C@H](CO)O2)nn1
    11 | 4
- C[C@H]1CN([C@@H](C)CO)C(=O)c2cc(C3=CCCC3)cnc2O[C@H]1CN(C)C(=O)Nc1ccc(C(F)(F)F)cc1
    ? | nt
- COc1ccccc1-c1ccc2n(c1=O)C[C@@H]1[C@@H](CO)[C@H](C(=O)N(C)C)N[C@H]21
    9 | 7
- Cc1ccc(S(=O)(=O)Nc2ccc3c(c2)C(=O)N([C@@H](C)CO)C[C@@H](C)[C@@H](CN(C)C(=O)Nc2ccc4c(c2)OCO4)OCCCC[C@H](C)O3)cc1
    -6 | -5
- CCNC[C@@H]1[C@H](c2ccc(C3=CCCC3)cc2)[C@H](CO)N1c1nc(C)c(C)s1
    -31 | -20
- Cc1noc(C)c1NC(=O)N(C)C[C@H]1OCCCC[C@@H](C)Oc2ccc(NC(=O)NC(C)C)cc2C(=O)N([C@@H](C)CO)C[C@H]1C
    0 | -2
- C[C@H]1CN([C@@H](C)CO)C(=O)c2cc(NC(=O)NC3CCCCC3)ccc2O[C@H]1CN(C)Cc1ccc(C(=O)Nc2ccccc2N)cc1
    8 | 2
- O=C(C[C@H]1CC[C@H](NC(=O)c2ccncc2)[C@H](CO)O1)NCCc1ccncc1
    5 | -3

Entries of single compounds, looked up by structure. Values in the order: Vaccinia inh, Vaccinia inh Venus
Profile of C[C@H]1CN([C@@H](C)CO)C(=O)c2cc(NC(=O)NC3CCCCC3)ccc2O[C@H]1CN(C)Cc1ccc(C(=O)Nc2ccccc2N)cc1 : 8, 2
Profile of CCCC(=O)Nc1ccc2c(c1)OC[C@H](C)N(CC1CCCC1)C[C@H](C)[C@H](OC)CN(C)C2=O : 5, 6
Profile of C[C@@H]1CN([C@H](C)CO)C(=O)c2cc(C#Cc3cccnc3)cnc2O[C@@H]1CN(C)C(=O)CN(C)C : 12, 15

Later entries
Below each SMILES – Vaccinia inh | Vaccinia inh Venus
- COc1ccc(S(=O)(=O)Nc2cccc3c2O[C@@H](CN(C)S(=O)(=O)c2cccs2)[C@@H](C)CN([C@H](C)CO)C3=O)cc1
    -2 | 12
- CO[C@@H]1CN(C)C(=O)c2ccc(NC(=O)Nc3ccc(Cl)cc3)cc2OC[C@H](C)N(C)C[C@H]1C
    -25 | -17
- C[C@@H]1CN([C@@H](C)CO)C(=O)c2cccc(NC(=O)C3CC3)c2O[C@H]1CN(C)Cc1ccc(C(F)(F)F)cc1
    -29 | -19
- Cn1cnc(S(=O)(=O)N2CCCCN3[C@@H](CO)[C@H](c4ccc(C5=CCCC5)cc4)[C@@H]3C2)c1
    26 | 7
- C[C@@H]1CN([C@H](C)CO)C(=O)Cc2cc(NC(=O)Nc3ccc(F)cc3)ccc2O[C@H]1CN(C)S(=O)(=O)c1cccs1
    13 | 1
- C[C@H]1CN([C@@H](C)CO)C(=O)Cc2cc(NC(=O)c3ccncc3)ccc2O[C@H]1CN(C)C(=O)Nc1cccc2ccccc12
    11 | 9
- COc1ccc(NC(=O)N2CCCCN3[C@H](C2)[C@H](c2ccc(-c4ccccc4F)cc2)[C@@H]3CO)cc1
    ? | nt
- C#CCNC(=O)C1=C[C@@H](C2CC2)C[C@@H](OCCCCO)O1
    11 | 17
- Cc1ccc(S(=O)(=O)Nc2cccc3c2O[C@H](CN(C)Cc2ccc(C(=O)O)cc2)[C@@H](C)CN([C@@H](C)CO)C3=O)cc1
    14 | 7
- COc1ccc2c3c(n(C)c2c1)[C@@H](CO)N(C(=O)Nc1ccc(F)cc1)CC31CN(C(=O)c2ccc3c(c2)OCO3)C1
    ? | nt
- C[C@H](CO)N1C[C@H](C)[C@H](CN(C)C(=O)NC2CCCCC2)Oc2c(NS(C)(=O)=O)cccc2C1=O
    2 | 1
- C[C@H]1CN([C@@H](C)CO)C(=O)Cc2cc(NC(=O)CCN3CCOCC3)ccc2O[C@H]1CN(C)C(=O)Nc1ccc(F)cc1
    4 | -1
- COc1ccc(S(=O)(=O)N2C[C@H](O)COC[C@@H]3O[C@@H](CC(=O)NCCCN4CCOCC4)CC[C@H]32)cc1
    9 | 4
- N#Cc1cccc(-c2ccc3c(c2)[C@@H]2[C@@H](CCN2C(=O)C2CCCCC2)[C@H](CO)N3)c1
    ? | nt
- CC(C)NC(=O)N(C)C[C@@H]1Oc2ccc(NC(=O)CCC(F)(F)F)cc2CC(=O)N([C@H](C)CO)C[C@H]1C
    19 | 10
- O=C(C[C@@H]1CC[C@H]2[C@@H](COC[C@@H](O)CN2Cc2cccc(C(F)(F)F)c2)O1)NCc1ccc(F)cc1
    ? | nt
- C[C@@H]1CN([C@@H](C)CO)C(=O)Cc2cc(NC(=O)C3CCCCC3)ccc2O[C@@H]1CN(C)Cc1ccc(Oc2ccccc2)cc1
    ? | nt
- COc1ccc(NC(=O)Nc2cccc3c2O[C@@H](CN(C)Cc2ccc(-c4ccccc4)cc2)[C@@H](C)CN([C@@H](C)CO)C3=O)cc1
    -18 | -6
- CCO[C@@H]1OC(C(=O)N2CCCC2)=C[C@H](c2ccccc2)[C@H]1CCCO
    3 | 0
- O=C(C[C@H]1C[C@@H]2c3cc(NC(=O)C4CCOCC4)ccc3O[C@@H]2[C@@H](CO)O1)NCC(F)(F)F
    3 | 5
- O=C(C1CCOCC1)N1CC(=O)N2[C@H](CO)[C@H](c3ccc(Br)cc3)[C@@H]2C1
    15 | -1
- CCCNC(=O)C[C@H]1CC[C@H]2[C@@H](COc3ccc(NC(=O)c4cccc(OC)c4)cc3C(=O)N2C)O1
    1 | 5
- C[C@H](CO)N1C[C@H](C)[C@H](CN(C)C(=O)Nc2ccc(C(F)(F)F)cc2)OCCCC[C@H](C)Oc2ccc(NS(=O)(=O)c3ccc(Cl)cc3)cc2C1=O
    -19 | -10
- C[C@H](CO)N1C[C@H](C)[C@@H](CN(C)CC2CC2)Oc2c(NC(=O)Nc3ccccc3)cccc2C1=O
    8 | 5
- C[C@@H]1CN([C@H](C)CO)S(=O)(=O)c2ccc(C3=CCCCC3)cc2O[C@H]1CN(C)C(=O)CC1CC1
    -17 | -10
- COc1ccc(NC(=O)Nc2ccc3c(c2)C(=O)N([C@H](C)CO)C[C@H](C)[C@@H](CN(C)Cc2ccccc2)OCCCC[C@@H](C)O3)cc1
    6 | 9
- CO[C@H]1CC[C@H]2CCOc3c(C#N)cccc3C(=O)N(C)[C@@H](C)C(=O)N(C)C[C@H]1O2
    12 | 4
- O=C(C[C@@H]1C=C[C@@H](NC(=O)Nc2ccccc2F)[C@H](CO)O1)NCc1ccc(Cl)cc1
    -7 | -13
- O=C(CCN1CCCCC1)NCC[C@@H]1CC[C@@H](NC(=O)C2CCCC2)[C@@H](CO)O1
    6 | -1
- CN1c2ccc(-c3cccc(F)c3)cc2[C@@H]2[C@@H](CCN2C(=O)Cc2ccccc2)[C@@H]1CO
    ? | nt
- C/C=C/c1ccccc1[C@H]1[C@H](C#N)N(C(=O)c2cccnc2)[C@H]1CO
    12 | 11
- C[C@@H]1CN([C@H](C)CO)C(=O)c2cc(NC(=O)Nc3ccc4c(c3)OCO4)ccc2O[C@@H](C)CCCCO[C@@H]1CN(C)C(=O)CCC(F)(F)F
    28 | 9
- O=C1O[C@@H](c2ccccc2)[C@@H](c2ccccc2)N2[C@@H](c3ccc(OCCO)cc3)[C@]3(C(=O)Nc4ccc(C#CC5=CCCCC5)cc43)[C@@H](C(=O)NC[C@H](O)c3ccccc3)[C@H]12
    2 | 9
- O=C(C[C@H]1CC[C@H](NC(=O)CN2CCOCC2)[C@H](CO)O1)NC1CCCCC1
    -1 | -1
- CCCNC(=O)N1CC2(CCN(Cc3cccnc3)CC2)c2c(n(C)c3cc(OC)ccc23)[C@@H]1CO
    0 | -14
- CO[C@H]1CN(C)C(=O)c2cc(NC(=O)c3cc(C)on3)ccc2OC[C@H](C)N(C(C)=O)C[C@@H]1C
    -5 | -2
